# Compound activity (PubChem BioAssay)
# GLA inh pH 4.5: inhibitors of human alpha-galactosidase A at pH 4.5. P06280. purified enzyme, 4-MU-alpha-Gal fluorescence, pH 4.5. activity change, negative = inhibition, % at 105 µM. 230,000 tested, under 10 active. AID 1467; inconclusive = small, poorly fitted or top-dose-only inhibition, or a rising curve; inactive = flat fitted curve, though single readings scatter; no compound was filed as active;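 note: 0% = full activity with enzyme and -100% = basal without enzyme; dose as in the result columns while the protocol names 77 µM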
# Target sequence (P06280 whole entry, looked up): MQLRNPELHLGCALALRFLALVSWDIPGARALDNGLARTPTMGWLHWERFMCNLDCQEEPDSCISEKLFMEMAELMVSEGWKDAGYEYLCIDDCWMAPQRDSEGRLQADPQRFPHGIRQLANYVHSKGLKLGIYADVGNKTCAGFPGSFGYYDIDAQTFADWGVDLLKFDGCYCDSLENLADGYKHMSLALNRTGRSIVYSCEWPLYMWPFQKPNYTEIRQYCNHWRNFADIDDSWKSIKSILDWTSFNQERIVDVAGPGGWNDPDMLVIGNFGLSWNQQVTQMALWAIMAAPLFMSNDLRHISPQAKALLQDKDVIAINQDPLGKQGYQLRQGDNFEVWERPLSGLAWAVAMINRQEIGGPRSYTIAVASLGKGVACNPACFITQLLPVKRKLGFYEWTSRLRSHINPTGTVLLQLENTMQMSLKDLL
# Active calls of the source: *; & = joins results of further samples. Only part of the results is shown, so the mix of outcomes need not match the whole.
SMILES,GLA inh pH 4.5
C[C@]12C[C@@](C)(C=C1/C=C/c1ccc(C(F)(F)F)cc1)C(=O)C[C@H]2c1ccc(C(F)(F)F)cc1,-4
CCOC(OCC)P(=O)(O)CCCNCc1ccc(Cl)c(Cl)c1,1
CC1(C)C(=O)C=C[C@]2(C)C1CC(=O)[C@]1(C)C2CC[C@@]2(C)C(c3ccoc3)OC(=O)C3O[C@@]321 (stereo partly drawn),-2
OC[C@H]1O[C@@H](n2cnc3c(NC4CCCC4)ncnc32)[C@H](O)[C@H]1O,0
CCCC1(C(=O)OC)C=C2C(=C(c3ccccc3)C(=O)C2C)CN1 (stereo not drawn),3
Cc1cc(C)c(S(=O)(=O)Nc2ccccc2C(F)(F)F)c(C)c1,-1
FC(F)(F)c1cc(NC(=S)Nc2ccc3ccccc3c2)cc(C(F)(F)F)c1,-3
C[C@H](NCCC(c1ccccc1)c1ccccc1)c1ccccc1,-8
C#C[C@@]1(O)CC[C@@H]2[C@@H]3CCC4=C(CCC(=O)C4)[C@H]3CC[C@]21C,1
CC1C(=O)OC2C(O)C34C5CC(C(C)(C)C)C36C(OC(=O)C6O)OC4(C(=O)O5)C12O (stereo not drawn),5
COc1ccc(/C=C/C(=O)c2cc(O)ccc2O)cc1,-2
Cc1c(C)c2c(c(C)c1O)CCC(C)(CCCC(C)CCCC(C)CCCC(C)C)O2 (stereo not drawn),-3
Fc1ccc(CN(C2=NCCN2)c2c(Cl)cccc2Cl)cc1,-8
CCC1=C2CC[C@H]3C(=O)N(CC(=O)OC)C(=O)[C@H]3[C@H]2[C@@]2(C)C(=NCCc3c[nH]c4ccccc34)OC(=O)N2C1=O,0
COC(=O)[C@@]1(Cc2ccc(F)cc2)[C@H]2c3cc(C(=O)N4CCCC4)n(Cc4cccc5ccccc45)c3C[C@H]2CN1C(=O)c1ccccc1,-4
COC(=O)[C@H](COC(C)(C)C)NC(=O)O[C@@H]1Cc2cc(OC)ccc2O[C@H]1c1cccc(OC)c1,-6
CN1CCc2cc3c(cc2C(=O)Cc2ccc4c(c2C1)OCO4)OCO3,3
COc1cccc2oc(-c3ccccc3)cc(=O)c12,1
CCC(=O)Oc1ccc2c(c1)CCC1C2CC[C@]2(C)C(OC(=O)CC)CCC12 (stereo partly drawn),-9
C[C@@H]1C=C[C@](Cc2ccccc2)(C(=O)NCCCNc2ncc(C(F)(F)F)cc2Cl)N1C(=O)c1ccccc1,-29
CC(C)(C)C(=O)NC(c1ccc(Cl)cc1)[C@]1(C)C[C@H]1C1CCCCC1 (stereo partly drawn),-8
CCC1=C2CC[C@H]3C(=O)N(CC)C(=O)[C@H]3[C@H]2[C@@]2(C)C(=NCC(=O)OC)OC(=O)N2C1=O,6
CCC1=C2CC[C@H]3C(=O)N(c4ccccc4)C(=O)[C@H]3[C@H]2[C@@]2(Cc3ccccc3)C(=NCc3ccccc3)OC(=O)N2C1=O,-1
COC(=O)NC(c1ccccc1)c1c[nH]c2ccccc12 (stereo not drawn),-2
Cc1cnc(CNc2ncncc2-c2ccccc2C#N)cn1,-8
CC1(C)S[C@@H]2[C@H](NC(=O)C3(N)CCCCC3)C(=O)N2[C@H]1C(=O)O,7
Cc1cc(O)c(C)c(O)c1C(=O)O,4
Nc1nc2c(c(=O)[nH]1)N(C=O)[C@H](CNc1ccc(C(=O)N[C@@H](CCC(=O)O)C(=O)O)cc1)CN2,5
CC(=O)c1cc2c(cc1O)OC(C)(C)C=C2,-4
CNCC(O)c1cccc(O)c1 (stereo not drawn),9
NC(=O)c1cc[n+](CC2=C(C(=O)O)N3C(=O)C(NC(=O)C(c4ccccc4)S(=O)(=O)[O-])C3SC2)cc1 (stereo not drawn),4
COC(=O)[C@@H]1C[C@@]2(O)[C@H](O)[C@H](O)[C@H](O)C[C@H]2N1Cc1ccc(N2CCOCC2)cc1,-6
CCC(C)c1ccc(O[C@@H]2O[C@H](CO)[C@@H](O)[C@H](O)[C@H]2NC(C)=O)cc1 (stereo partly drawn),-4
CCOC(=O)CCCNC(=O)N1CCc2nc(-c3ccc(OC)cc3C)c3c(c2C1)CO[C@@H](c1ccccc1)C3,1
COc1c2c(cc3c1C(c1c(O)c4ccccc4oc1=O)N(C)CC3)OCO2 (stereo not drawn),-3
CCCC[C@H]1C[C@@H]1[C@@H]1N(C(C)=O)[C@H](c2cccc(OC)c2)CC12CC2,-10
CC(=O)NCCNc1ncnc2ccc(-c3ccc(C(=O)N(C)C)cc3)cc12,-17
C[C@@H]1/C(=N/O)CC2C[C@@H]1C2(C)C,-1
COC(=O)C1OC(=O)C2OC23[C@]2(C)C(O)CC4C(C)(C)C(OC(C)=O)CC(OC(C)=O)[C@@]4(C)C2CC[C@@]13C (stereo partly drawn),2&-2
Cc1cccc(C)c1NC(=O)C[N+](C)(C)C,-30&2
O=[N+]([O-])c1ccccc1S(=O)(=O)NCC1CCC(CNCC2CCc3ccccc3C2)CC1 (stereo not drawn),-10
NCCC[C@@H](CC(=O)N[C@@H]1CCCC[C@H]1C(=O)N[C@H](CC(=O)N[C@@H](CCC(=O)O)CC(=O)O)Cc1c[nH]c2ccccc12)NC(=O)C[C@H](Cc1c[nH]c2ccccc12)NC(=O)[C@@H]1CCCC[C@H]1N,-8
CC1(C)C(=O)C=C[C@@]2(C)C1C=C[C@@]1(C)C2CC[C@@]2(C)C(c3ccoc3)OC(=O)C3OC312 (stereo partly drawn),-11
CCCCC/C=C\C\C=C/C=C/C=C/[C@@H](O)[C@@H](O)CCCC(=O)O,-1
C=C1C(=O)O[C@@H]2[C@H]3O[C@]3(C)CCC=C(C)CC[C@@H]12,2&-10
C=CCC(C)(O)c1ccccc1 (stereo not drawn),1
CC#CCN1c2ccccc2[C@]23C[C@@H](C(=O)OC)N(S(=O)(=O)c4ccc(C#N)cc4)C2=NC(C(=O)OC)=C(C(=O)OC)[C@H]13,-20
COC(=O)c1ccc(C(NC(=O)OCc2ccccc2)/C(C)=C/[C@@H](C)C(=O)Nc2ccc(OC)cc2)cc1 (stereo partly drawn),-17

# 4 compounds from above, sorted by their value in GLA inh pH 4.5, low to high.
SMILES,GLA inh pH 4.5
CC#CCN1c2ccccc2[C@]23C[C@@H](C(=O)OC)N(S(=O)(=O)c4ccc(C#N)cc4)C2=NC(C(=O)OC)=C(C(=O)OC)[C@H]13,-20
CC(=O)NCCNc1ncnc2ccc(-c3ccc(C(=O)N(C)C)cc3)cc12,-17
C[C@@H]1/C(=N/O)CC2C[C@@H]1C2(C)C,-1
C=CCC(C)(O)c1ccccc1 (stereo not drawn),1

# Carrying on:
SMILES,GLA inh pH 4.5
COc1cccc(-c2cncnc2NCc2ccccc2)c1,-2
CCCn1c(-c2ccc(F)cc2)nc2c(NC3CC4CCC(C3)N4C)nc(C)nc21 (stereo not drawn),-6
C/C=C/C1=CC2=CC(=O)C(C)(OC(=O)c3c(C)cc(O)cc3O)C(=O)C2=CO1 (stereo not drawn),-4
CC=C(/C(=C/C)c1ccc(O)cc1)c1ccc(O)cc1,-16
O=C(OC1Cc2c(O)cc(O)cc2OC1c1cc(O)c(O)c(O)c1)c1cc(O)c(O)c(O)c1 (stereo not drawn),4
COc1ccc2c(c1OC)C(=O)N1c3ccccc3C(=O)OC21 (stereo not drawn),-9
CCC(C)C(=O)OC1CCC=C2C=CC(C)C(CCC3CC(O)CC(=O)O3)[C@@H]21 (stereo partly drawn),-3
O=c1cc(-c2cccc(O)c2)oc2cc(O)ccc12,-14
CCCCCCCCCCCCCCCCCCOC[C@H](COP(=O)([O-])OCC[N+](C)(C)C)OC(C)=O,0
O=C(/C=C/c1ccccc1)c1ccc(O)cc1O,-17
CC(C)(C)OC(=O)NCCCC1=CC2=CC(=O)C(C)(OC(=O)c3ccco3)C(=O)C2=CO1 (stereo not drawn),-6
COC(=O)[C@@]1(Cc2ccccc2)[C@H]2c3cc(C(=O)N4CCCC4)n(Cc4ccc(O)c(OC)c4)c3C[C@H]2CN1C(=O)c1ccccc1,-10
CCN1CCN(C(=O)N[C@H](C(=O)N[C@@H]2C(=O)N3C(C(=O)O)=C(CSc4nnnn4C)CS[C@@H]23)c2ccc(O)cc2)C(=O)C1=O,-12
C[C@@H](CNC1CCCCC1)OC(=O)c1ccccc1,-30
COC(=O)[C@@H]1C[C@@]2(O)[C@H](O)[C@H](O)[C@H](O)C[C@H]2N1CC1CCCCC1,4
CCC(=O)O[C@@H]1[C@H](C)O[C@H](O[C@H]2[C@@H](N(C)C)[C@H](O)[C@@H](O[C@@H]3[C@@H](CC=O)C[C@@H](C)[C@@H](O)/C=C\C=C/C[C@@H](C)OC(=O)C[C@@H](OC(=O)CC)[C@H]3OC)O[C@H]2C)C[C@]1(C)O,1
Cc1ccccc1-c1cncnc1NC1CCNCC1,-1
CN(C)Cc1ccccc1-c1nccc(NCc2cccs2)n1,-12
O=C(O)c1cc(O)c2c(c1)[C@H]([C@H]1c3cc(C(=O)O)cc(O)c3C(=O)c3c(O[C@@H]4OC(CO)C(O)C(O)C4O)cccc31)c1cccc(O[C@@H]3OC(CO)C(O)C(O)C3O)c1C2=O (stereo partly drawn),-12
CN(C)Cc1ccccc1-c1ccc2ncnc(NC3CC3)c2c1,0
C=C1C2CC[C@@]3(C)C(c4ccoc4)OC(=O)C[C@@]13OC1CC(OC(C)=O)C(C)(C)C(CC(=O)OC)[C@@]12C (stereo partly drawn),-6
Nc1nc(Nc2ccccc2)nc2c1ncn2[C@@H]1O[C@@H](CO)[C@H](O)[C@H]1O,-4
Cc1cnc(CNc2nc(-c3cccnc3)nc3ccccc23)cn1,4
COc1c(C=O)c(=O)[nH]c2c(OC)cccc12,2
CC(C)(C)c1cc(/C=C(\C#N)C(N)=S)cc(C(C)(C)C)c1O,-6
CCC1CN2CCC1CC2[C@@H](NC(=S)Nc1cc(C(F)(F)F)cc(C(F)(F)F)c1)c1cccc2ccc(OC)cc12 (stereo partly drawn),-7
COC(=O)c1cccc(C23CC4(C2)[C@H](CN(C)[C@@H]4c2ccccc2)C3c2ccc(Cl)nc2)c1 (stereo partly drawn),-6
COc1ccc(NC(=O)c2ccc(-c3ccc(-c4noc(C)n4)cc3C)cc2)cc1OCCN(C)C,5
C=CCO[C@@H](Cn1ccnc1)c1ccc(Cl)cc1Cl,1
O=C(Oc1ccccc1C(=O)O)c1ccccc1O,7
NS(=O)(=O)c1cc([C@@]2(O)NC(=O)c3ccccc32)ccc1Cl,-2
O=Nc1ccc2oc(=O)ccc2c1,-5
COC(=O)[C@H](Cc1ccccc1)NC(=O)[C@]1(C)C[C@H]1[C@H](NC(=O)OCc1ccccc1)c1ccccc1,-12
COC(=O)c1nnc(C(=O)N(C)Cc2ccccc2)c2[nH]c3ccccc3c12,-1
CN=C(NC#N)NCCSC[C@H]1N=CN=C1C,0
CCCn1c(C)nc2c(NCCOC)nc(C)nc21,1
CN1[C@@H]2CC(OC(=O)[C@H](CO)c3ccccc3)C[C@@H]1[C@H]1O[C@H]12 (stereo partly drawn),-2
COc1cccc2c1CCC1CC(=O)CC[C@@]21C (stereo partly drawn),6
O=c1nc2ccccc2c2n1C[C@H](CN1CCN(c3ccccc3)CC1)N2,-2
C[C@H]1Cc2c(COc3ccccc3)nc3c(c2CO1)CN(C(=O)c1ccco1)CC3,4
Cc1ccccc1-c1cc(Nc2ccc(F)cc2)ncn1,0
Cc1ccc(NC(=O)O[C@@H]2C(=O)c3cc(Br)ccc3O[C@H]2c2ccc3c(c2)OCO3)cc1Br,-1
CCN(CC)CCCC(C)n1c(-c2ccccc2)nc2c(N(CCOC)CCOC)nc(C)nc21 (stereo not drawn),-7
COC(=O)CC1C(C)(C)C(O)C2CC3=C4CC(O)OC(c5ccoc5)[C@]4(C)CCC3[C@@]1(C)C2=O (stereo partly drawn),-12
CCCCNc1nc(C)nc2c1nc(C)n2CCC,1
Clc1ccc2nc(-c3ccccc3)[nH]c2c1,-3
COc1ccc2c(c1)O[C@@H](c1ccc3c(c1)OCO3)[C@H](OC(=O)NCc1ccco1)C2=O,-8
CC1C(O)CC2C(C(=O)O)=CO[C@@H](O[C@H]3OC(CO)C(O)C(O)C3O)C21 (stereo partly drawn),4

# Among those listed so far, these have an NH in an aromatic ring:
SMILES,GLA inh pH 4.5
CCC1=C2CC[C@H]3C(=O)N(CC(=O)OC)C(=O)[C@H]3[C@H]2[C@@]2(C)C(=NCCc3c[nH]c4ccccc34)OC(=O)N2C1=O,0
COC(=O)NC(c1ccccc1)c1c[nH]c2ccccc12 (stereo not drawn),-2
Nc1nc2c(c(=O)[nH]1)N(C=O)[C@H](CNc1ccc(C(=O)N[C@@H](CCC(=O)O)C(=O)O)cc1)CN2,5
NCCC[C@@H](CC(=O)N[C@@H]1CCCC[C@H]1C(=O)N[C@H](CC(=O)N[C@@H](CCC(=O)O)CC(=O)O)Cc1c[nH]c2ccccc12)NC(=O)C[C@H](Cc1c[nH]c2ccccc12)NC(=O)[C@@H]1CCCC[C@H]1N,-8
COc1c(C=O)c(=O)[nH]c2c(OC)cccc12,2
COC(=O)c1nnc(C(=O)N(C)Cc2ccccc2)c2[nH]c3ccccc3c12,-1
Clc1ccc2nc(-c3ccccc3)[nH]c2c1,-3

# Following part
SMILES,GLA inh pH 4.5
Nc1nc2ncc(CNc3ccc(C(=O)NC(CCC(=O)O)C(=O)O)cc3)nc2c(=O)[nH]1 (stereo not drawn),-10&0&-1
CN(C)Cc1ccccc1-c1cc(N(C)C)ncn1,2
COC(=O)CCC(=O)OC1(C)C(=O)C=C2C=C(CCCNC(=O)OC(C)(C)C)OC=C2C1=O (stereo not drawn),-15
Cc1ccc2oc(-c3ccccc3)c(O)c(=O)c2c1,-2
CCCCCCCCCCCCSCCOCCO,-10
C[C@]12CCC(=O)C=C1CCC1C2C(O)C[C@]2(C)C1CC[C@]2(O)C(=O)COC(=O)CCC(=O)O (stereo partly drawn),1
CN1[C@@H]2CC[C@H]1CC(OC(c1ccccc1)c1ccccc1)C2 (stereo partly drawn),-1
O=C(O)CCCC/C=C\C[C@@H](O)/C=C/C=C/C=C\[C@@H](O)CCCC(=O)O,2
C[C@]12CCC3c4ccc(OS(=O)(=O)O)cc4CCC3C1CCC2=O (stereo partly drawn),18
